# Screening results deposited in PubChem by ICCB-Longwood Screening Facility, Harvard Medical School.
# Choline anaer gr: choline-fed anaerobic bacterial growth inhibition; Gram-negative bacterium anaerobic choline minimal medium, absorbance growth; active compounds read low; many inactives read as strong as hits in the columns shown; hit rate 0.2% among 55,000; calls only; AID 1963822;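 active = growth z-score on choline under -2 at 7 or 20 h with little or no fall on glycerol, limits in tiers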;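 note: stock transfer was 300 nL into about 50 µL; the organism is E. coli; final concentration not given here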
# Choline anaer gr early: recorded beside Choline anaer gr, whose call it bears; z-score; measured here: choline growth z-score, timepoint 1;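 score of optical density at 7 h as mean of two plates; lower means less growth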
# * hit, by the source's call; i = inactive; & = joins results of further samples. Some of the compounds tested, so the mix of outcomes need not match the whole.
SMILES,Choline anaer gr,Choline anaer gr early
Cc1noc(C)c1C(=O)N1CCCC1c1c(C)noc1C (stereo unspecified),i,-1.95
COCCn1cc(C(=O)N2CCN(c3ccc(C)cc3)C(C)C2)c2c3ccccc3n(C)c2c1=O (stereo unspecified),i,1.26
CC1(C)C(=O)N(CC(=O)N2CCN(c3ccccc3)CC2)c2ccc(S(=O)(=O)N3CCCC3)cc21,i,-0.71
CC(C)CCNC(=O)C1(C)Cn2nc(C(=O)NC3CC3)cc2C(=O)N1C (stereo unspecified),i,-0.15
CCc1ccccc1NC(=O)CSc1nnc(C(C)N2C(=O)COc3ccccc32)n1C (stereo unspecified),i,-0.64
Cc1cc(C2CCCN2C(=O)c2ccnn2C)on1 (stereo unspecified),i,0.8
CCCC(O)c1nc2ccccc2n1CCOc1cc(C)ccc1C (stereo unspecified),i,1.63
Cn1c(=O)c2ccc(C(=O)NC3CCCC3)cc2n2c(=O)n(CC(=O)NC3CCCCC3)nc12,i,-0.04
NC(=O)c1ccccc1NC(=O)c1ccc(=O)n(Cc2ccccc2F)c1,i,2.02
CCOc1ccc(-c2csc(Cc3nc(-c4ccc(C)cc4)no3)n2)cc1,i,1.4
O=C1CC(c2ccccc2Cl)Cc2nc(NCc3ccccc3)ncc21 (stereo unspecified),i,0.26
CCc1ccccc1NC(=O)Nc1ncc(-c2ccccc2)n1C,i,0.06
Cc1nc(-c2ccc(C(=O)N3CCC(C(=O)Nc4nccs4)CC3)cc2)no1,i,-0.66
Cc1cc(C)cc(C(=O)Nc2c(C)nc3c(C)cccn3c2=O)c1,i,0.85
Cc1sc(-c2noc(C3CC3)n2)cc1S(=O)(=O)N1CCCC(C(=O)NC2CCCCC2)C1 (stereo unspecified),i,1.35
Cc1c(Nc2nc3nonc3nc2Nc2ccccc2F)c(=O)n(-c2ccccc2)n1C,i,0.53
COc1ccc(NC(=O)c2cc(N3CC(C)CC(C)C3)nc3ccccc23)cc1 (stereo unspecified),i,0.42
Cc1ccc2[nH]cc(CCNC(=O)C3CCCN(c4nc5ncccc5n5cccc45)C3)c2c1 (stereo unspecified),i,-0.7
CCCc1nc2nc[nH]n2c(=O)c1NC(=O)Nc1ccc(OC)cc1OC,i,0.32
Cc1ccc(S(=O)(=O)N2CCCN(c3nc4ccccc4n4cccc34)CC2)cc1,i,1.73
Cc1nn(-c2ccc3nncn3n2)c2c1C(c1ccc(C(C)C)cc1)CC(=O)N2 (stereo unspecified),i,-2.2
O=C1COc2ccc(S(=O)(=O)N3CCOCC3)cc2N1Cc1noc(C2CCC2)n1,i,0.65
CCc1ccc(NC(=O)N2CCN(c3nc4ccccc4n4cccc34)CC2)cc1,i,0.11
COc1ccc(-c2cc(C(F)(F)F)c3c(C)nn(-c4ccc(Cl)cc4)c3n2)cc1OC,i,-0.72
CCCCN(C)c1ncc(C(=O)O)cc1NS(=O)(=O)c1cc(F)ccc1F,i,0.21
COc1ccc(C2=NN(c3nc(C)cs3)C(c3ccc(F)cc3)C2)cc1 (stereo unspecified),i,0.07
CCCN1CCN(c2nnc(-n3cccc3CN3CCN(C4CCCCC4)CC3)s2)CC1,i,-0.59
Cc1ccccc1C1C2=C(CC(c3ccccc3)CC2=O)Nc2onc(C)c21 (stereo unspecified),i,1.15
NC(=O)C1CCN(C(=O)c2cnn3c(C(F)(F)F)cc(-c4ccccc4)nc23)CC1,i,0.3
COc1ccc(C(=O)Nc2ccc3nc(N4CCC(C)CC4)cc(C)c3c2)cc1,i,0.84
CCCCCCCCCCCCC/C=C/[C@@H](O)[C@H](CO)NC(=O)CCCCCCCCCCCCCCC,i,-0.61
CCCOc1ccc(CN2CCCC2c2c(C)noc2CC)cc1OC (stereo unspecified),i,0.1
Cc1c(CC2C(=O)Nc3ccccc32)oc2ccccc12 (stereo unspecified),i,-1.78
COc1ccc(S(=O)(=O)Nc2cc3c(cc2N2CCCCC2)n(C)c(=O)c(=O)n3C)cc1Cl,i,0.3
Cc1ccc(CNc2ccc3nnc(C4CCC4)n3n2)o1,i,-0.41
Cc1ccc(-c2n[nH]c(CCNC(=O)Cc3cccc(C)c3)n2)cc1,i,0.72
COc1ccc(S(=O)(=O)N2CCc3nc(NC(=O)Nc4ccccc4OC)sc3C2)cc1,i,-0.72
O=C1CCN(C(=O)COc2ccccc2Cl)c2ccccc2N1,i,-0.35
CCN(CC)CCNC(=O)c1cc(C)nc2c1c(=O)n(C)c(=O)n2C,i,-1.22
O=C(Cn1ccc2cc(S(=O)(=O)N3CCCC3)ccc21)NCc1cccc(Cl)c1,i,0.86
COc1ccc(N2C(=O)CCS2(=O)=O)cc1S(=O)(=O)NC1CCCCC1,i,-1.08
CCC(C)NC(=O)Cn1ncc2c(c1=O)N(C)C(=O)CS2 (stereo unspecified),i,-0.62
COc1ccc(CSc2nc3ccncc3n2Cc2ccccc2)cc1,i,0.05
O=C(NC1CCCCC1)c1ccc(Cl)c(-n2nnc3cccnc32)c1,i,0.44
Cc1nn(-c2ccc3nnc(C)n3n2)c2c1C(c1ccc(O)cc1)CC(=O)N2 (stereo unspecified),i,0.65
COC(=O)C1=C(C)NC(C)=C(C(=O)OCCN(C)Cc2ccccc2)C1c1cccc([N+](=O)[O-])c1 (stereo unspecified),i,0.13&0.28&0.78&0.23&0.1
O=C(NCc1ccccc1)c1cccc(C(=O)NCc2ccccc2)n1,i,0.63
NS(=O)(=O)c1ccc(CCNC(=O)Cc2csc(NC(=O)NC3CCCC3)n2)cc1,i,-0.77
CCOC(=O)c1noc2ncn(CC(=O)c3ccc(OC)c(OC)c3)c(=O)c12,i,0.26
Cc1ccc2c(c1)-c1onc(C(=O)N3CCN(c4ccccn4)CC3)c1CO2,i,0.54
# (more compounds)
SMILES,Choline anaer gr,Choline anaer gr early
CCNS(=O)(=O)c1ccc(OCC)c(-c2nc(C)no2)c1,i,-0.11
O=C(O)c1ccc(Nc2c(-c3cc(Br)ccc3O)nc3cnccn23)cc1,i,-0.31
Cc1nn(-c2ccc(Cl)nn2)c2c1CCC2,i,0.28
Cc1nc(Nc2cccc(Cl)c2)c2c(C)noc2n1,i,-0.55
CCn1nc(C)c2ccn(CC(=O)NCc3ccc(OC)c(OC)c3)c(=O)c21,i,0.06
O=C(CSC1=NS(=O)(=O)c2ccccc2N1)Nc1ccccc1F,i,-1.07
O=C(NCCC1=CCCCC1)C1CCN(c2ccc(N3CCCC3)nn2)CC1,i,-0.87
O=C(NCc1ccc2c(c1)OCO2)c1cccc(-n2cnc3cccnc32)c1,i,0.66
O=C(NC1CC1)C1CCCN(c2ncnc3c2oc2ccccc23)C1 (stereo unspecified),i,-0.07
Cc1ccc(CNC(=O)c2cc3n(n2)CCCN(Cc2ccc(F)cc2)C3=O)cc1,i,0.35
COc1ccc(NC(=O)CCCn2c(=O)c3cccn3c3ccc(F)cc32)cc1OC,i,1.14
Cc1cc(C)cc(C(=O)NCC(=O)NCc2cscn2)c1,i,-1.18
CCSc1nn(CC(=O)Nc2cc(C)ccc2C)c(N)c1S(=O)(=O)c1ccc(OC)cc1,i,1.34
c1ccc(-n2ncc3c(NC4CCCC4)ncnc32)cc1,i,-1.57
Cn1ccc2cc(S(=O)(=O)N3CCN(C(=O)Nc4ccc(Br)cc4)CC3)ccc21,i,-0.62
O=C(CSc1nnc2c3ccccc3nc(-c3ccccc3)n12)Nc1cc(F)ccc1F,i,-0.63
Cc1ccccc1C(=O)NCC(c1ccc(N(C)C)cc1)N(C)C (stereo unspecified),i,0.64
CC1CCN(S(=O)(=O)c2ccc(CNC(=O)c3ccsc3)s2)CC1,i,0.33
Cc1ccc(C(=O)N2CCc3ccc(CNC(=O)NCc4ccccc4)cc32)cc1,i,-0.76
CCOc1cc(C2C3=C(CC(c4ccc(O)cc4)CC3=O)Nc3onc(C)c32)ccc1O (stereo unspecified),i,-0.41
CCC(C)NS(=O)(=O)c1c(C)[nH]c(C)c1-c1nnc(C)o1 (stereo unspecified),i,0.6
O=C(Nc1nc2c(s1)CCCC2)C1COc2ccccc2O1 (stereo unspecified),i,-0.62
CCNC(=O)N1CCCN(Cc2ccsc2)CC1,i,0.51
O=c1[nH]c2cc(-c3nc(-c4ccc5c(c4)OCO5)no3)ccc2c(=O)n1-c1ccc(F)cc1,i,-0.67
CCCCCC(=O)CC[C@@H]1[C@@H](CCCCCCC(=O)O)[C@@H](O)C[C@H]1O,i,-0.22
O=c1nc(SCc2ccccc2F)c2c(n1CCc1ccccc1)CCC2,i,1
CCn1c(C(=O)N2CCC(C(=O)NCc3cccc(OC)c3)CC2)cc2occc21,i,0.17
COCCNS(=O)(=O)c1cc(-c2cc(C(F)(F)F)on2)sc1C,i,0.19
CCc1ccccc1NS(=O)(=O)c1ccc2c(c1)N(CC(=O)OC)C(=O)CS2,i,0.3
Cc1nn(-c2ccc3nncn3n2)c(C)c1CCC(=O)Nc1ccc(F)cc1,i,-1.45

# Random excerpt: 2 records from the list, in no set order.
SMILES,Choline anaer gr,Choline anaer gr early
Cc1nn(-c2ccc3nncn3n2)c(C)c1CCC(=O)Nc1ccc(F)cc1,i,-1.45
O=c1[nH]c2cc(-c3nc(-c4ccc5c(c4)OCO5)no3)ccc2c(=O)n1-c1ccc(F)cc1,i,-0.67

# The listing continues:
SMILES,Choline anaer gr,Choline anaer gr early
Cc1ccc(-c2noc(CSc3ccc(-c4ccccc4)nn3)n2)cc1,i,0.79
Cc1cc(-c2nn3cnnc3s2)c2ccccc2n1,i,1.43
CC(=O)n1ccc2ccc(C(=O)CN3CCN(c4ccc(F)cc4)CC3)cc21,i,-0.05
O=c1[nH]c2ccccc2c2ccccc12,i,0.02&-0.31
CCCc1ccc(S(=O)(=O)N2CCC(N3CCN(Cc4cccc(F)c4)C(=O)C3=O)CC2)cc1,i,0.82
Cc1cc(N2CCN(Cc3ccccc3)CC2)n2nc(C)c(-c3ccccc3)c2n1,i,1.17
Cc1nn(-c2ccc(-c3noc(C4CC4)n3)cc2)cc1C(=O)N1CCc2ccccc21,i,0.33
O=C(NCc1c(-c2ccccc2)nc2n1CCS2)C1CC1,i,0.5
Cc1ccc(S(=O)(=O)Nc2cc3[nH]c(=O)[nH]c3cc2Cl)cc1C,i,0.3
Cc1nn(-c2nc3ccc(Br)cc3s2)c2c1C(c1cc(F)cc(F)c1)CC(=O)N2 (stereo unspecified),i,0.19
Cc1ccc(-c2noc(CCC(=O)Nc3cccc4nsnc34)n2)cc1,i,0.74
COCCn1c(CCCC(=O)NC2CCCC2)nc2cccnc21,i,-0.02
O=C(NCC1CCCO1)C1CCN(c2cc(-c3cccc(F)c3)ncn2)CC1 (stereo unspecified),i,-0.63
Cc1cccc(NC(=O)N2CCCC2c2ccc(Cl)cc2)c1C (stereo unspecified),i,1
Cc1nc2nc3c(c(Nc4ccccc4)n2n1)CCCC3,i,0.13
O=C(NCc1ccc(Cl)cc1)c1cnn(-c2ccccc2)c1,i,0.76
O=C(c1cc(=O)n2c(nc3ccccc32)s1)N1CCN(c2ccccc2)CC1,i,0.13
CCOC(=O)c1c(-c2ccc(Cl)cc2)csc1NC(=O)C1=Cc2ccccc2OC=C1,i,-1.13
COc1ccc(OC)c(NC(=O)Cn2c(=O)n(Cc3nc(C)no3)c(=O)c3ccccc32)c1,i,1.74
CCCCN1CCN(S(=O)(=O)c2ccccc2-c2nc(-c3ccc(F)cc3)no2)CC1,i,1.07
CCc1ccc(-c2nc(CS(=O)CC(=O)NC(C)C)c(C)o2)cc1 (stereo unspecified),i,0.02
CCOC(=O)c1c(S(=O)(=O)N2CCC(C(=O)NC3CCCc4ccccc43)CC2)c(C)n(C)c1C (stereo unspecified),i,-0.4
CCc1ccc(C2=C(C)C(=O)N(CC(=O)Nc3cc(C)ccc3C)S2(=O)=O)cc1,i,0.79
CCNC(=O)c1cc2c(n(-c3ccc(F)cc3)c1=O)CCCC2=O,i,-0.74
Cc1ccc2nsnc2c1S(=O)(=O)NCCc1c(C)[nH]c2ccccc12,i,-0.46
CCC(=O)Nc1nc2ccc(NS(=O)(=O)Cc3ccccc3)cc2s1,i,-1.71
CCCCOc1cccc(C(=O)NCc2csc(-c3ccccc3)n2)c1,i,-0.11
Cc1cc(C2CCCN2C(=O)c2cc(-c3ccc4c(c3)OCO4)on2)no1 (stereo unspecified),i,-1.02
Cc1nc(-n2[nH]c(C)c(CCC(=O)N3CCCCC3)c2=O)sc1C,i,0.73
O=C(CCc1nc(-c2cc3ccccc3[nH]c2=O)no1)NCCc1ccccc1,i,0.4
Cc1ccc(-c2ccc(N3CC=C(c4ccccc4)CC3)nn2)cc1S(=O)(=O)N1CCCC1,i,-0.35
CCN(CC)CCOC(=O)c1ccc(N)cc1Cl,i,0.55
Cc1nc2c3ccccc3n3c(CCCC(=O)NCc4ccc(Cl)cc4)nnc3n2n1,i,-1.12

# Gathered by group, the compounds so far with a Cl atom (14)
SMILES,Choline anaer gr,Choline anaer gr early
O=C1CC(c2ccccc2Cl)Cc2nc(NCc3ccccc3)ncc21 (stereo unspecified),i,0.26
COc1ccc(-c2cc(C(F)(F)F)c3c(C)nn(-c4ccc(Cl)cc4)c3n2)cc1OC,i,-0.72
COc1ccc(S(=O)(=O)Nc2cc3c(cc2N2CCCCC2)n(C)c(=O)c(=O)n3C)cc1Cl,i,0.3
O=C1CCN(C(=O)COc2ccccc2Cl)c2ccccc2N1,i,-0.35
O=C(Cn1ccc2cc(S(=O)(=O)N3CCCC3)ccc21)NCc1cccc(Cl)c1,i,0.86
O=C(NC1CCCCC1)c1ccc(Cl)c(-n2nnc3cccnc32)c1,i,0.44
Cc1nn(-c2ccc(Cl)nn2)c2c1CCC2,i,0.28
Cc1nc(Nc2cccc(Cl)c2)c2c(C)noc2n1,i,-0.55
Cc1ccc(S(=O)(=O)Nc2cc3[nH]c(=O)[nH]c3cc2Cl)cc1C,i,0.3
Cc1cccc(NC(=O)N2CCCC2c2ccc(Cl)cc2)c1C (stereo unspecified),i,1
O=C(NCc1ccc(Cl)cc1)c1cnn(-c2ccccc2)c1,i,0.76
CCOC(=O)c1c(-c2ccc(Cl)cc2)csc1NC(=O)C1=Cc2ccccc2OC=C1,i,-1.13
CCN(CC)CCOC(=O)c1ccc(N)cc1Cl,i,0.55
Cc1nc2c3ccccc3n3c(CCCC(=O)NCc4ccc(Cl)cc4)nnc3n2n1,i,-1.12
